PrP 5UTR inh: inhibition of PrP 5' UTR reporter expression; cell-based PrP 5' UTR mRNA reporter, plate reader; inhibition, % (no concentration beside the values); AID 488862; actives 0.35% (n = 340,000);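 active = every replicate at 50% or more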;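 also: 0 = median of the neutral control wells; tested in H4 reporter cells; numbers are from one replicate; inactives centre near -14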
Mtb hypoxia rep: reduces hypoxia-regulated biosensor signal in M. tuberculosis; M. tuberculosis hypoxia-regulated fluorescent reporter, fluorescence; fluorescence inhibition, % (test concentration not listed); actives 0.1% (n = 300,000);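 active = 35 to 45% if threefold the growth effect, above 45% if 1.5-fold the growth effect; inactive = the rest, general growth blockers included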;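 also: wells of about 50 µL received 100 nL stock; 0% = vehicle wells and 100% = reference inhibitor wells; whole bacteria with a GFP reporter of the hypoxia response; strong numbers were not always called active; many hits fall short of the cut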
RN4220 kill: kills Staphylococcus aureus RN4220. S. aureus RN4220 growth, OD600, 16 h. inhibition, % (concentration not given with the values). actives 0.33% (n = 330,000);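 active = z-score of -3 or lower and OD600 up to 0.18 on both plates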;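 also: plate controls were untreated cells for no effect and reference antibiotic for full effect; stock transfer was 100 nL into about 80 µL; one replicate is shown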
Autofluor counter: counter-screen for toxin protease inhibitors: compound fluorescence. compound autofluorescence counterscreen, microsphere flow cytometry; stronger effect = higher value. fluorescence intensity (test concentration not listed). actives 3.1% (n = 360,000);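 active = at least 3 SD above the mean of all compounds, about 16000 in these data; inconclusive = too few beads counted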;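 also: 100 nL of 1 mM stock went into each well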
Sa ugtP lethal: compounds lethal to S. aureus RN4220 ugtP deletion mutant | OD600 growth, 16 h; some inactives read as strong as hits | actives 0.54% (n = 330,000) | growth inhibition, % (concentration not given with the values) | AID 1259309;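 active = z-score under -3 and OD600 up to 0.15 on both plates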;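 also: plate controls were untreated wells for no effect and antibiotic for full effect; wells of about 80 µL received 100 nL stock; the first replicate is given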
BJeLR lethal: BJeLR cell viability loss; AID 1554; BJeLR (HRASV12) viability, CellTiter-Glo ATP luminescence, 48 h; reference of the scale not given here; actives 0.17% (n = 300,000); inhibition, % (concentration not given with the values);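 active = replicate mean above 50%; inconclusive = above 50% but judged a plate artefact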;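 also: 50 nL library stock added to about 25 µL; numbers are from one replicate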
Mtb hypoxia rep growth: second read-out of Mtb hypoxia rep, no call of its own (marks repeat the call); growth inhibition, %; measured here: M. tuberculosis growth (absorbance);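 0% = vehicle and 100% = reference antibiotic; read after six days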
* marks the source's active call; other numbers are inactive results; ? = inconclusive; · = no result given.

canonical_smiles	RN4220 kill	Mtb hypoxia rep	Sa ugtP lethal	Mtb hypoxia rep growth	PrP 5UTR inh	Autofluor counter	BJeLR lethal
COc1ccc(C(=O)NN=CC(=O)c2ccccc2)cc1	3.8	7	5	-1	·	·	·
Cc1ccc(C(=O)N2CCN(c3ccc(C(F)(F)F)cn3)CC2)cc1	0.8	·	3	·	-13	4488	-3
CCCc1cc(C(=O)NNC(=S)NCC2CCCO2)cs1 (configuration not stated)	4.5	7	5	2	-13	8676	3
CC(C)(C)C(=O)C(Oc1cccc2nonc12)n1cncn1 (configuration not stated)	3.6	2	3	2	-9	8582	-1
N#Cc1c2n(c3c(=O)n(CC(=O)c4ccc([N+](=O)[O-])cc4)cnc13)CCCCC2	3.7	0	-2	0	-18	2015	-12
COC(=O)c1sc(-c2ccccc2)cc1NC(=O)c1ccccc1	-5.5	-4	-21	1	-25	2109	-20
COc1ccc(OCC(=O)N2CCN(C(=O)Cc3ccccc3)CC2)cc1	-2.6	-2	5	6	-6	?	-7
CCOc1ccccc1NC(=O)CN1CCC(NC(=O)c2ccccc2)CC1	2.9	6	-4	9	3	2372	1
O=C1c2ccccc2S(=O)(=O)N1CCOc1ccccc1	4.7	0	2	4	-37	10242	13
Cc1cc(C(=O)CSc2ccc3c(c2)OCCO3)c(C)n1C1CC1	4.4	11	33	10	-75	2568	2
CC1CCN(S(=O)(=O)c2cccc(C(=O)NCc3cccs3)c2)CC1	-6.2	13	-2	9	-9	2855	-12
O=C(O)c1ccccc1SCc1cn2cc(Br)ccc2n1	6.5	10	8	-1	-23	2622	-10
CC(=O)Nc1ccc(NC(=O)C2CCCN(C(=O)c3ccc(Cl)cc3)C2)cc1 (configuration not stated)	5.2	4	3	5	-31	3263	1
Cc1cc(C)cc(NC(=O)N2CCC(NC(=O)c3ccc(F)cc3)CC2)c1	-0.3	3	-1	5	-11	4249	-10
C=CCOC(=O)C1=C[C@H](c2ccc(Br)cc2)[C@@H](CCCO)[C@H](OCC)O1	·	·	·	·	-8	3607	7
C/C(=N\N=C1\NC(=O)C(CC(=O)Nc2ccc(C)c(Cl)c2)S1)C(C)(C)C (configuration not stated)	·	·	·	·	-4	2549	-5
CC(C)NC(=S)N/N=C/c1cccnc1	·	·	·	·	-11	5139	2
N#Cc1ccccc1S(=O)c1ccccc1C(=O)Nc1ccccc1 (configuration not stated)	-4.2	-10	-10	5	-2	2093	-1
O=C(Nc1csc([N+](=O)[O-])c1)Nc1ccccc1Cl	3.8	7	-13	12	-24	6295	15
S=c1[nH]nc(-c2ccc(Cl)cc2)n1/N=C/c1ccco1	·	·	·	·	-17	5526	-3

Structures listed so far containing an aryl methoxy group:
canonical_smiles	RN4220 kill	Mtb hypoxia rep	Sa ugtP lethal	Mtb hypoxia rep growth	PrP 5UTR inh	Autofluor counter	BJeLR lethal
COc1ccc(C(=O)NN=CC(=O)c2ccccc2)cc1	3.8	7	5	-1	·	·	·
COc1ccc(OCC(=O)N2CCN(C(=O)Cc3ccccc3)CC2)cc1	-2.6	-2	5	6	-6	?	-7

By substructure: the entries above containing fluorine.
canonical_smiles	RN4220 kill	Mtb hypoxia rep	Sa ugtP lethal	Mtb hypoxia rep growth	PrP 5UTR inh	Autofluor counter	BJeLR lethal
Cc1ccc(C(=O)N2CCN(c3ccc(C(F)(F)F)cn3)CC2)cc1	0.8	·	3	·	-13	4488	-3
Cc1cc(C)cc(NC(=O)N2CCC(NC(=O)c3ccc(F)cc3)CC2)c1	-0.3	3	-1	5	-11	4249	-10

Other records
canonical_smiles	RN4220 kill	Mtb hypoxia rep	Sa ugtP lethal	Mtb hypoxia rep growth	PrP 5UTR inh	Autofluor counter	BJeLR lethal
COCCOC1CCN(C(=O)C2CCC(=O)N(CCc3ccccc3)C2)CC1 (configuration not stated)	1.0	7	1	14	2	5800	-13
COc1cc(C(=O)NCC(=O)NC(C)CCc2ccccc2)cc(OC)c1OC (configuration not stated)	-3.5	-2	4	-8	-13	5146	5
COc1ccccc1C(=O)NCC(=O)NN=Cc1cn[nH]c1-c1ccccc1	0.4	-2	-3	-5	·	·	·
COc1ccc(OCCOC(=O)c2[nH]c(C)c(C(C)=O)c2C)cc1	3.7	1	1	4	-13	2559	0
Cc1ccc(C(=O)/C=C/c2ccccc2[N+](=O)[O-])cc1	14	-2	-3	10	-43	3328	-3
CC(CCc1ccccc1)NC(=O)c1ccc(NC(=O)c2ccccc2)cc1 (configuration not stated)	4.9	8	5	5	-9	2170	-10
O=C(Nc1ccc(-c2nc3ccccc3[nH]2)cc1)c1ccc2c(c1)OCO2	3.4	1	-9	2	-114	8947	6
CC(C)n1c(N2CCN(C(=O)c3cccs3)CC2)nc2ccccc21	-0.6	4	-1	11	-6	6591	-11
CCOc1ccc(C(=O)Nc2c3c(nn2-c2cccc(C)c2C)CS(=O)C3)cc1 (configuration not stated)	8.1	0	-12	3	-6	4418	7
COc1ccc(OCc2cc(-c3ccc(Cl)cc3)no2)cc1	4.4	3	4	-6	-23	4580	-4
O=C(Nc1ccc(CN2CCOCC2)cc1)c1ccc(-c2cccc([N+](=O)[O-])c2)o1	-8.0	-2	-7	5	-1	5945	3
CC(=O)NC(CCS(C)(=O)=O)C(=O)Nc1cc(C)on1 (configuration not stated)	3.3	-4	-2	-14	-1	6513	-1
COc1ccc(C(=O)NC(C)c2csc(C)n2)cc1OC1CCN(C(C)=O)CC1 (configuration not stated)	1.8	8	0	-1	4	?	-5
CCN(CC)CCCNC(=O)CSc1c2c(nc3cc(Cl)ccc13)CCCC2	-3.9	6	-9	3	-23	2078	-2
COc1c(C=C2C(=O)NC(=O)NC2=O)c(CCN(C)C(=O)c2ccccc2)cc2c1OCO2	6.0	·	-9	·	-9	4979	0
O=C(COC(=O)c1cc(S(=O)(=O)N2CCCC2)ccc1O)NCc1ccccc1	-4.5	-2	9	3	-20	5724	·
Cc1cc(C)c(C)c(OCCCN(C)C)c1	0.6	-3	5	-4	-13	2481	-1
Cc1cc(NC(=O)CCCN2C(=O)c3cccc4cccc(c34)C2=O)no1	8.7	-7	4	7	-10	4374	-4
CC(C)N1C(=O)C(Cc2nc3ccccc3c(=O)n2-c2ccccc2)c2ccccc21 (configuration not stated)	12	7	26	-2	-21	7288	-7
O=C(N/N=C/CCc1ccccc1)C1CCCCC1	·	·	·	·	-36	9436	19

Next records.
canonical_smiles	RN4220 kill	Mtb hypoxia rep	Sa ugtP lethal	Mtb hypoxia rep growth	PrP 5UTR inh	Autofluor counter	BJeLR lethal
COC(=O)CC1C(=O)NCCN1C(=S)Nc1cccc(C(F)(F)F)c1 (configuration not stated)	3.9	1	0	3	20	3377	-3
O=C(C1=CC(c2ccc3c(c2)OCO3)CC(OCCCCO)O1)N1CCOCC1 (configuration not stated)	3.9	5	-1	-1	·	·	·
FC(F)(F)c1ccc(N2CCN(c3ncnc4c3nnn4Cc3ccccc3)CC2)nc1	4.9	3	4	9	-12	10418	17
O=C(NCC1CCCO1)C(=O)N/N=C/c1ccccc1C(=O)O (configuration not stated)	·	·	·	·	-14	3418	3
COc1ccccc1C1=CC(=O)CC(C)(C)C1=O	0.8	5	-2	-1	-10	4049	·
CCOC(=O)c1c(C)[nH]c(C(=O)N2CCc3cc(OC)c(OC)cc3C2)c1C	0.5	-5	-4	-5	-6	·	-2
C=C1[C@@H](OC(C)=O)CC[C@]2(C)[C@@H]1C[C@@H]1C[C@H](OC(C)=O)C(C)=C([C@@H](OC(C)=O)[C@@H]2OC(C)=O)C1(C)C	·	·	·	·	-20	3534	-10
CN(C)S(=O)(=O)c1cccc(C(=O)NCC(C)(C)CNC(=O)c2cccc(S(=O)(=O)N(C)C)c2)c1	3.3	16	9	2	-12	3513	6
O=C(Cc1ccccc1)Nc1ncnc2c1C(c1ccccc1)c1c(ccc3ccccc13)O2 (configuration not stated)	-8.9	21	8	5	-9	4180	·
COC(=O)C1=C(C)N(C)C(=O)NC1c1ccccc1 (configuration not stated)	6.8	4	3	3	-4	3147	1
CCN(CCn1cccn1)Cc1cn[nH]c1-c1ccc(OC)cc1F	-0.1	10	1	-4	26	4276	11
CCn1c(CNC(=O)COc2c(C)cccc2C)nnc1SCC(=O)Nc1nccs1	2.5	-9	-2	7	-12	17164*	-5
O=C1NC(=S)NC(=O)C1=Cc1cccn1-c1ccc(O)cc1	-4.7	-2	-20	13	-9	3978	-4
Cc1ccc(S(=O)(=O)NC(=O)NCc2ccc(F)cc2)cc1	3.7	2	-2	1	-22	4457	-1
CN1CCN(c2ccc([N+](=O)[O-])c(NCC3CCCO3)c2)CC1 (configuration not stated)	3.8	12	17	2	-26	2140	8
COc1cccc2c1OC1(C)CC2NC(=O)N1c1cccc(C(=O)Nc2ccc3c(c2)OCCO3)c1 (configuration not stated)	-1.2	-14	2	3	-19	2800	1
CCOC(=O)c1oc2cc(OCC(=O)OC)ccc2c(=O)c1-c1ccc(OC)c(OC)c1	3.8	10	5	2	-22	3276	-4
CC(C)COP(=O)(OCC(C)C)C(O)c1ccc(F)cc1 (configuration not stated)	5.8	1	-2	1	-17	2486	-5
COc1cccc(-c2sc3ccc(OC)cc3c2-c2ccc(OC)cc2F)c1	-0.6	2	90*	3	-39	3667	·
CCOc1ccc(NS(=O)(=O)c2ccc(C(=O)N(CC)CC(=O)NCc3cccs3)cc2)cc1	2.2	2	14	-2	-12	4456	-11

(next part)
canonical_smiles	RN4220 kill	Mtb hypoxia rep	Sa ugtP lethal	Mtb hypoxia rep growth	PrP 5UTR inh	Autofluor counter	BJeLR lethal
CCCCNc1ncnc2c1cnn2-c1ccccc1	-1.3	7	-2	16	-124	3044	24
CCOc1ncccc1C(=O)N1CCN(C(=O)c2ccccc2)CC1	4.2	-1	0	8	-2	3657	8
CCC(=O)N1CC(=O)Nc2ccc(F)cc2C1c1ccccc1 (configuration not stated)	-1.3	1	2	5	-7	6311	2
CSc1ccc(C(=O)C2CCCN(C(=O)c3csc(C(C)=O)c3)C2)cc1 (configuration not stated)	1.4	13	4	6	-12	4516	3
COc1ccc(N2CCN(C(=NS(=O)(=O)c3ccccc3)Nc3nc(C)cc(C)n3)CC2)cc1	5.0	14	6	7	·	·	·
Cc1c(NC(=O)CN(c2ccccc2)S(=O)(=O)c2ccc(F)cc2)c(=O)n(-c2ccccc2)n1C	2.8	8	5	-1	-5	4394	0
COC(=O)c1ccc(C=NNC(=O)C2CC(=O)N(c3ccc(OC)cc3)C2)cc1 (configuration not stated)	-3.1	-4	-6	1	·	·	·
COC(=O)c1cc(=O)n(Cc2ccc(OC)c(OC)c2)c(=Nc2ccc(F)cc2)s1	-14	-1	-4	12	-10	5538	7
CC1CCCN(S(=O)(=O)c2ccc(NC(=O)C3CC(=O)N(c4ccccc4)C3)cc2)C1 (configuration not stated)	4.0	-17	0	3	-12	4531	-7
O=C(NC1CC1)C1CCN(C2CCN(C(=O)Cc3ccc(F)cc3)CC2)CC1	1.7	-1	10	-13	-18	3717	10
CCOC(=O)C1(Cc2ccc(OC)cc2)CCN(C(=O)C2CC(=O)N(C3CC3)C2)CC1 (configuration not stated)	7.5	15	7	4	-9	4844	2
CS(=O)(=O)c1ccc2nc(NC(=O)CN3CCOCC3)sc2c1	1.2	9	9	-3	-7	·	3
Clc1ccc(NCc2nnc3n2CCCCC3)cc1	1.9	4	-4	4	-19	3017	-2
COc1ccc(C(=O)COC(=O)c2ccccc2C(=O)N(C)c2ccccc2)c(OC)c1	7.8	-6	10	-11	-22	4106	-14
CC(=O)Nc1cccc(NC(=O)CSc2n[nH]c(-c3ccccc3)n2)c1	3.3	12	5	6	-24	3762	·
COc1ccc2oc(=O)c(C(=O)n3ccc(C)n3)cc2c1	3.2	9	1	6	-15	7844	13
CSc1ccc(CN2CCC(Cc3ccccc3)CC2)cc1	1.5	0	8	-6	-15	3716	11
C=C(COC(=O)CCC(=O)O)CC1CC(O)[C@]2(C)OC3CC4OC5C[C@]6(C)O[C@]7(C)CCC8OC9C[C@]%10(C)OC%11C(C)=CC(=O)OC%11CC%10OC9CC(C)C8OC7CC6O[C@]5(C)CC=CC4OC3CC2O1 (some centres not stated)	8.0	-1	3	9	·	·	·
Cc1ccc(-c2nnc(OCCN3CCOCC3)c3ccccc23)cc1	5.1	11	5	14	-6	4357	2

Compound activity from PubChem BioAssay.
